# Screens from PubChem.
# D2 potentiator – potentiates the human D2 dopamine receptor allosterically; AID 624464; 0.23% of 360,000 active; P14416; potentiation, % (test concentration not listed); DiscoveRx D2 beta-arrestin cells, luminescence, 90 min; 100% = 57 uM dopamine signal; active = potentiation of 50% or more; inconclusive = 30% to 50%; inactive = 30% or less;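 further: compound concentration not given in the record; tested on top of an EC20 dose of dopamine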
# Target sequence (P14416 whole entry, looked up): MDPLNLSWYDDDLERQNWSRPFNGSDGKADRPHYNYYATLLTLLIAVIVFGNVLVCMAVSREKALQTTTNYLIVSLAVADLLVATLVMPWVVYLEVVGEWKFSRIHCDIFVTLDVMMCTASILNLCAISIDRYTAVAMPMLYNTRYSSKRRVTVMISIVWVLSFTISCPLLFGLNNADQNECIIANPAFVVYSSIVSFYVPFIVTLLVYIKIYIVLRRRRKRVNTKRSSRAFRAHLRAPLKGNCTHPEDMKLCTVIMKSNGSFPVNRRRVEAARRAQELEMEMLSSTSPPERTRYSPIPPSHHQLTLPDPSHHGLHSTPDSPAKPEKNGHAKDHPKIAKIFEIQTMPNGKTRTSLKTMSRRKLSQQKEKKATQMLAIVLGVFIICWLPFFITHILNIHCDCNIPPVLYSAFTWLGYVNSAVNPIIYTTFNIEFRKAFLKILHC
#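 PathHunter beta-arrestin assay in DiscoveRx D2 cells. Compounds were added with an EC20 of dopamine (50 nM final) for 90 min at 37 deg C. Luminescence was read 1 h after detection reagent, with 57 uM dopamine as the EC100 control.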
# Six1-Eya2 blk – blocks human Six1 binding to Eya2. Q15475+O00167. AlphaScreen GST-Six1/His-Eya2 binding, biochemical; hits give low values; control for the full effect not named in the record. activity change, % (test concentration not listed). 0.56% of 360,000 active. AID 651725; in the data active = activity change below about -65%; inconclusive = about -30% to -65%; inactive = above about -30%; further: on the % scale 0 is the no-effect control and ±100 the full control effect; compound concentration not given in the record
#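 AlphaScreen with GST-Six1 and His-Eya2 (5X mix: 250 nM and 500 nM), glutathione donor and nickel acceptor beads; buffer 50 mM Tris pH 8.0, 300 mM NaCl, 1 mM TCEP; 1 h at 37 C in the dark.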
# TRPV1 potentiator – potentiators of human vanilloid receptor 1 (TRPV1). Q8NER1. TRPV1-expressing cells, Fluo-8 calcium influx, capsaicin EC20 potentiation; host cell line not named in the record; control for the full effect not named in the record. potentiation, % at 8.33 µM. 0.02% of 320,000 active. AID 540277; active means potentiation above 80%; inconclusive means 30% to 80%; inactive means below 30%; further: 0% is about no effect
#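 Cells expressing TRPV1 were dye-loaded with Fluo-8 and read kinetically: 10 s baseline, 3 min after compound (agonist portion), then 2 min after EC20 capsaicin (allosteric enhancer portion). Calcium-bound dye fluorescence at 480/520 nm.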
# TRPML1 ag – human mucolipin-1 channel agonism; TRPML1-expressing cells, Ca2+ dye fluorescence, FDSS; host cell line not named in the record; reference of the full effect not given here; activation, % (no concentration beside the values); 0.12% of 410,000 active; Q9GZU1; in the data active = activation above about 50%; inconclusive = about 30% to 50%; inactive = below about 30%; further: 0% is about no effect; the text of the record puts the active cut at 80%
# Target sequence (Q9GZU1 whole entry, looked up): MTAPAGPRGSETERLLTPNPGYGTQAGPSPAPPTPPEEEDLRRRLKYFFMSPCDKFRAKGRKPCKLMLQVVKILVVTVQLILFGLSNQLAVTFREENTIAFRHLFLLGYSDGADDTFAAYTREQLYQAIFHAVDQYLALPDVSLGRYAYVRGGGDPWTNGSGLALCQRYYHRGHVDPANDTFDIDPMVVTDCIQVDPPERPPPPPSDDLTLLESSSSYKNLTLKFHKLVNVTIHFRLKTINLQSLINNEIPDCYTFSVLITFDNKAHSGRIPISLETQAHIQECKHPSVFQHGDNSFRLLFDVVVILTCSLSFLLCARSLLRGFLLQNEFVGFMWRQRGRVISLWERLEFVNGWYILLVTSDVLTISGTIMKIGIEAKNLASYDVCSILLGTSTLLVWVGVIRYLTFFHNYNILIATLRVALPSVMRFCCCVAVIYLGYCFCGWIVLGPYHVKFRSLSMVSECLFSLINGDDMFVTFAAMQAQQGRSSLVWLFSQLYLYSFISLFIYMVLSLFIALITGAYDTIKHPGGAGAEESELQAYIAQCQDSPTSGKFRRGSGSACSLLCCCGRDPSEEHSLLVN
#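 Tetracycline-induced TRPML1-DL cells are seeded and incubated overnight before loading with a no-wash Ca2+ dye and quencher. Agonist activity is taken from the 110 s fluorescence read following compound pin-transfer on an FDSS, before EC80 54-4 challenge.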
# CtBP-E1A blk – inhibitors of CtBP/E1A interaction; activity change, % (no concentration beside the values); AID 651724; AlphaScreen GST-E1A/His-CtBP binding, 1536-well; hits give low values; control for the full effect not named in the record; 0.49% of 340,000 active; in the data active means activity change below about -65%; inconclusive means about -30% to -65%; inactive means above about -30%; further: on the % scale 0 is the no-effect control and ±100 the full control effect; compound concentration not given in the record
#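 Homogeneous bead-based format: GST-tagged E1A captured on glutathione donor beads, His-tagged CtBP on nickel acceptor beads; compounds precede bead addition by 2 h at 37 °C.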
# TRPML1 blocker – inhibitors of human TRPML1 channel; 0.02% of 390,000 active; AID 624415; Q9GZU1; TRPML1-inducible cells, Ca2+ dye fluorescence, FDSS; hits give low values; inhibition of EC80 agonist-evoked calcium signal; activity change, negative = inhibition, % (test concentration not listed); in the data active means activity change below about -50%; inconclusive means about -30% to -50%; inactive means above about -30%;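 further: stimulus is agonist 54-4 at its EC80 concentration; on the % scale 0 is the no-effect control and ±100 the full control effect; compound concentration not given in the record; the text of the record puts the active cut at -80%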
#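 Calcium fluorescence in TRPML1-DL cells induced overnight with Tet: a 110 s read after compound pin addition, then a 110 s antagonist read after challenge with 54-4 at 4 uM final (EC80).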
# Numbers without * were called inactive; ? = inconclusive; / = not tested or not shown.
item	Compound	D2 potentiator	Six1-Eya2 blk	TRPV1 potentiator	TRPML1 ag	CtBP-E1A blk	TRPML1 blocker
1	CCC(C)NC(=O)c1ccccc1NC(=O)c1ccc(CSc2ccc(C)cc2)cc1 (stereo not given)	-5	3	-2	6.7	9	53
2	CCOc1ccc(S(=O)(=O)N2CCCCC2)cc1NC(=O)CN1C(=O)NC(C)(c2ccc(C)cc2)C1=O (stereo not given)	15	?	?	0.3	0	-1
3	CCOC(=O)N1CCN(C(=O)C(=O)Nc2sc3c(c2C(N)=O)CC(C)(C)OC3)CC1	7	9	-1	-0.7	8	-6
4	Cc1ccc(S(=O)(=O)N(CC(=O)Nc2cccnc2)c2cccc([N+](=O)[O-])c2)cc1	-21	0	-16	0.9	-9	-4
5	Cc1nc(C(=O)N(C)C)nn1-c1cc(Cl)ccc1Cl	-3	4	?	0.2	1	-3
6	CCC(C)NC(=O)CSc1nnc(-c2c[nH]c3ccccc23)o1 (stereo not given)	-4	-4	12	-1.3	-20	24
7	COc1ccc(Cl)cc1NC(=O)COC(C)=O	-3	-5	3	-0.1	/	18
8	COc1ccc(C/C(C)=N/NC(=S)Nc2ccccc2)cc1	-14	-2	10	0.0	/	5
9	O=C1C2C(C(=O)N1c1ccc3c(c1)OCO3)C1C=CC2C12CC2 (stereo not given)	-5	1	-21	-0.1	-6	20
10	Clc1ccc(-c2cc(C3CCNCC3)[nH]n2)cc1	1	4	-21	-0.9	-4	4
11	O=C(Nc1cccc(S(=O)(=O)N2CCOCC2)c1)C1CCN(S(=O)(=O)c2ccccc2)CC1	-2	1	6	0.2	-7	26
12	Cc1nn(-c2ccccc2)c(Cl)c1/C=C1\SC(=S)N(CCCCCC(=O)O)C1=O	-11	-7	19	0.2	6	2
13	COCCNC(=O)C(C)N(c1ccc(OC)cc1)S(C)(=O)=O (stereo not given)	8	7	-4	-0.6	8	7
14	Cc1cccc(C)c1NC(=O)CN(C)C(=O)c1cc(S(=O)(=O)N2CCOCC2)ccc1N1CCCC1	-16	1	3	-0.3	1	2
15	Cn1cccc1CNC(=S)Nc1ccccc1Cl	-3	5	-4	0.8	-5	-2
16	CCCn1c(SCC(=O)Nc2nnc(C)s2)nnc1C1CC1	-1	-3	-10	-0.4	7	-1
17	CC(CCc1ccccc1)NC(=O)c1cccnc1 (stereo not given)	4	5	1	-1.1	5	-1
18	C[C@@H]1CN([C@H](C)CO)C(=O)CCCn2cc(nn2)CO[C@H]1CN(C)C(=O)C1CCCCC1	-6	8	/	0.5	-2	-18
19	COc1cccc(OC)c1C(=O)Nc1c(C(=O)N2CCN(C)CC2)oc2ccccc12	-14	-3	6	3.1	/	11
20	COc1ccc(C2CC(c3cccs3)=NN2C(=O)c2ccco2)cc1OC (stereo not given)	-1	-9	-5	0.8	-5	23
21	Fc1ccc(/C=N/NC(=S)Nc2cccnc2)cc1	-21	-6	2	-0.2	/	-9
22	COc1cc2cc(C(=O)O)[nH]c2c(OC)c1OC	-10	0	-8	-0.2	14	2
23	Cc1cccc(C)c1OCC(=O)NCc1nnc(SCC(=O)NC2CCCCC2)n1C	-1	-2	-6	-1.3	-6	6
24	Cc1ccc(CSc2ncnc3c2cnn3-c2ccc(C)cc2)cc1	-7	14	18	-0.7	4	-4
25	CCCCn1c(N)c(N(CC(C)C)C(=O)COC(=O)Cc2c(C)nc3ccccc3c2C)c(=O)[nH]c1=O	-21	2	15	-0.7	-1	-5

# Remaining list, next part.
item	Compound	D2 potentiator	Six1-Eya2 blk	TRPV1 potentiator	TRPML1 ag	CtBP-E1A blk	TRPML1 blocker
26	O=C(Cc1ccccc1)Nc1ccc(NC(=O)c2ccccc2)c(Cl)c1	-6	-2	-5	1.6	0	-9
27	COc1cc(CC(=O)OCC(=O)Nc2ncc(Cl)cc2Cl)cc(OC)c1OC	-8	-9	-14	0.6	-6	-13
28	CC(C)C1C(=O)N(Cc2cn(CC3CCCCC3)nn2)CCS(=O)(=O)N1Cc1ccc(-c2ccc(F)cc2)cc1 (stereo not given)	2	23	/	0.9	1	12
29	CC(Sc1ncnc2sc(-c3ccccc3)cc12)C(=O)NCC1CCCO1 (stereo not given)	-2	-5	-9	0.9	10	-4
30	O=C(c1ccc2c(c1)OCCO2)C1CCN(S(=O)(=O)c2ccc(F)cc2)CC1	1	-1	1	1.1	-1	-4
31	CCCCOc1ccc(C(=O)Nc2ccc(SC(F)F)cc2)cc1OC	-10	11	-16	-0.2	/	18
32	COCCNC(=O)[C@@]1(Cc2ccccc2)C=C[C@@H](C)N1C(C)=O	-9	13	-1	0.1	/	-14
33	CCOC(=O)C1CN(S(=O)(=O)c2ccc(OC)cc2)c2cc(S(=O)(=O)CC)ccc2O1 (stereo not given)	-4	-2	-15	-0.9	-1	-5
34	Cc1ccc(C2=NN(S(C)(=O)=O)C(c3ccc4nccnc4c3)C2)cc1 (stereo not given)	-1	2	11	0.5	2	16
35	COc1ccccc1OCCn1cc(C(=O)c2ccco2)c2ccccc21	-2	-9	-9	-0.6	-9	0
36	CC1CCN(S(=O)(=O)c2ccc3c(c2)N(CC(=O)N(C)Cc2ccco2)C(=O)CO3)CC1	-6	-9	-9	2.0	/	2
37	O=C(C=Cc1ccco1)c1cc(Cl)ccc1O	-2	3	/	3.6	4	-9
38	O=S(=O)(/C=C/c1ccccc1)N1CCN(Cc2ccccc2)CC1	-9	0	-14	3.6	6	3
39	Cc1ccccc1N1CCN(C(=O)[C@@H]2CCCN2C2=NS(=O)(=O)c3ccccc32)CC1	-5	4	1	0.1	-16	-14
40	COC(=O)c1cccc(NC(=O)CCCOc2ccccc2)c1	10	8	-14	3.0	-10	-6
41	CC1CCC(NC(=O)CN2CCN(S(=O)(=O)c3ccc(Br)s3)CC2)CC1 (stereo not given)	-12	8	/	0.1	-10	-7
42	Cc1ccccc1NC(=O)CCCCC(=O)Nc1ccccc1C	2	26	1	0.8	3	-18
43	Cc1nn(CC(=O)c2ccc3c(c2)OCCO3)c(=O)c(C#N)c1C	-1	-6	/	-0.5	0	-5
44	COc1ccc(NC2CCCN(C(=O)c3ccccc3-c3ncc[nH]3)C2)cc1 (stereo not given)	-3	-20	/	-0.6	-1	2
45	COc1ccc2[nH]c(C)c(C(=O)CN(C)CC3OCCO3)c2c1	-3	-18	14	-0.4	-1	-4
46	Cc1c(-c2ccc(F)cc2)[n+](=O)c2c(n1[O-])CCCCC2	3	11	1	0.5	-4	8
47	N#CC1C(C#N)N2CCCN2C1c1ccc(Br)cc1 (stereo not given)	-11	5	27	-0.4	13	-2
48	Cc1ccc(/C=N/N=C/c2ccc(C)s2)s1	-17	-8	-10	-0.5	-10	-9
49	Cc1[nH]n2c(=O)c3c(nc2c1-c1ccccc1)CCC3	-32	-12	4	1.5	-22	-24
50	O=C(NCc1ccccc1)C1CCC(=O)N(CC2CCCCC2)C1 (stereo not given)	-9	-4	7	-0.1	5	-3

# Retrieved one by one from the list above (4):
item	Compound	D2 potentiator	Six1-Eya2 blk	TRPV1 potentiator	TRPML1 ag	CtBP-E1A blk	TRPML1 blocker
30	O=C(c1ccc2c(c1)OCCO2)C1CCN(S(=O)(=O)c2ccc(F)cc2)CC1	1	-1	1	1.1	-1	-4
32	COCCNC(=O)[C@@]1(Cc2ccccc2)C=C[C@@H](C)N1C(C)=O	-9	13	-1	0.1	/	-14
44	COc1ccc(NC2CCCN(C(=O)c3ccccc3-c3ncc[nH]3)C2)cc1 (stereo not given)	-3	-20	/	-0.6	-1	2
40	COC(=O)c1cccc(NC(=O)CCCOc2ccccc2)c1	10	8	-14	3.0	-10	-6

# The list goes on:
item	Compound	D2 potentiator	Six1-Eya2 blk	TRPV1 potentiator	TRPML1 ag	CtBP-E1A blk	TRPML1 blocker
51	Cc1[nH]c2ccccc2c1C(=O)CSc1ccc(F)cc1	-29	0	4	0.0	-4	-3
52	COc1ccc(C(=O)NNC(=O)C2(C)CC2(Br)Br)cc1 (stereo not given)	-5	20	-7	-0.6	13	-3
53	CC(C)Nc1nc(Oc2ccc(Cl)cc2Cl)cc(C(F)(F)F)n1	-3	31	-19	1.1	17	5
54	CC(C)SCc1nc2ccccc2[nH]1	-8	0	-1	2.8	-2	18
55	Cc1ccc(NNC(=O)C2CCC2)cc1C	-13	4	-15	-0.1	0	2
56	Cn1ncc(Cl)c1C(=O)N1CCN(c2cccc(Cl)c2)CC1	6	-4	-3	0.0	-2	20
57	CN(C(=O)COC(=O)c1cncc(Br)c1)C1CCS(=O)(=O)C1 (stereo not given)	-2	-3	14	-0.5	1	6
58	COc1ccc(CNC(=O)CN(c2ccccc2)S(=O)(=O)c2ccccc2[N+](=O)[O-])cc1	-12	8	12	0.5	-17	-8
59	O=C(NC1CCCC1)c1ccc(CS(=O)(=O)c2ccc(Cl)cc2)o1	3	1	-7	-1.2	2	3
60	COc1ccc(NC(=O)c2[nH]c(C)c(C(C)=O)c2C)cc1S(=O)(=O)Nc1ccc(Br)cc1	-9	-12	5	-0.5	-1	9
61	Cc1ccc(S(=O)(=O)n2nc(C)cc2C)cc1	3	-2	1	0.1	-14	6
62	Cc1ccccc1NC(=O)COC(=O)CCc1nc2ccccc2c(=O)[nH]1	-7	10	6	-0.6	2	8
63	CCOC(=O)C[N+]1(C)CCN(C(C)=O)CC1	-4	-1	1	1.3	/	-2
64	CCc1ccc(/C=C2\SC(=S)N(CCCC(=O)NC3=NCCS3)C2=O)cc1	-10	12	/	0.0	-24	-28
65	COc1cc(NC(=O)c2ccccc2)c(OC)cc1NC(=O)Cc1ccc(F)cc1	-2	0	1	2.3	1	0
66	COCCCN=CC1=C(O)CC(c2ccccc2)CC1=O (stereo not given)	-1	0	-6	/	-20	/
67	Cc1cccc(N2CC(C(=O)Nc3nnc(SCc4cccnc4)s3)CC2=O)c1 (stereo not given)	-3	-6	2	-0.6	4	-9
68	COc1ccc(-c2cc(C(=O)NCCN3CCOCC3)c3ccccc3n2)c(OC)c1	-25	15	7	-0.4	43	-7
69	C=CCn1c(C)cc(C(=O)Cn2nc(C(=O)O)c3ccccc3c2=O)c1C	-7	-19	-7	0.6	-5	2
70	COc1ccc(NC(=S)N2CCN(C/C=C/c3ccccc3)CC2)c(OC)c1	-2	-12	-4	-0.4	-10	0
71	O=C(NCCC1CCCCN1S(=O)(=O)c1ccccc1)C(=O)NCc1ccco1 (stereo not given)	-3	6	-14	2.8	-21	-5
72	COc1ccc(CN2C(=O)c3cccnc3C2=O)cc1S(=O)(=O)N1CC(C)CC(C)C1 (stereo not given)	1	-3	-4	-1.2	-16	29
73	CCOc1ccc(C(C)=O)cc1COC(=O)C1=COCCO1	-11	1	19	-0.5	1	6
74	C[C@@H]1CN([C@H](C)CO)C(=O)c2cc(NC(=O)Cc3cn(C)c4ccccc34)ccc2O[C@H]1CN(C)C(=O)Nc1ccc2c(c1)OCO2	-5	-7	/	0.3	-14	7
75	Cc1c(Br)c(=O)[nH]c(=O)n1COCc1ccccc1	-8	13	-12	-0.7	5	7
76	CC(=O)c1ccc(N2CCN(C(=O)/C=C/c3ccc(S(=O)(=O)NCc4ccco4)cc3)CC2)cc1	8	-5	-1	0.4	-13	10
77	COC(=O)c1ccccc1OC(=O)c1cc2ccccc2oc1=O	0	7	-7	-0.6	-1	-4
78	COc1ccc2c(=O)c(C(=O)NCc3ccccc3)c[nH]c2c1	-7	-12	7	-0.8	-16	4
